From PubChem BioAssay
Rango release inh: qHTS Assay for Inhibitors of RanGTP induced Rango (Ran-regulated importin-beta cargo) - Importin beta complex dissociation; 340,000 compounds, 0.071% hits; Snurportin-1 (Homo sapiens) + GTP-binding nuclear protein Ran (Homo sapiens) + Importin …; Biochemical FRET Rango-importin beta, RanGTP-induced dissociation; Potency, µM (doses to about 46.1 µM), inactives show at the highest dose activity change, negative = inhibition; active means falling FRET ratio curve, often poorly fitted, with flat reads before Ran was added; inconclusive means other falling curves, or compound fluorescence or quenching; inactive means flat or rising ratio curve;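 also: potency is read from the fitted curve at half-maximal effect; % of control where 0% means no effect; nearly all actives have a fitted effect of over 45% in size; -100% = wells without RanGTP and RCC1; the record marks most hits as doubtful in a second field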
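Rango/importin beta premix (0.1/0.25 uM final), PBS + 1 mM DTT + 0.02% Tween-20 + 0.1% BSA; cpd 5 min RT; FRET pre-read; + RanGTP-RCC1 (0.6 uM Ran, 2 mM GTP, 0.2 uM RCC1); 45 min RT; FRET post-read, ex 430, em 486/530 nm.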
Rango complex inh: qHTS Assay for Inhibitors of Rango (Ran-regulated importin-beta cargo) - Importin beta complex formation; Importin subunit beta-1 (Homo sapiens), Q14974; Rango CFP/YFP FRET sensor + importin beta, 45 min; Potency, µM (titrated, usually from 92.2 µM), inactives show at the highest dose inhibition of complex formation; 340,000 compounds, 0.031% hits; active = rising FRET ratio curve, often small or poorly fitted; inconclusive = mostly compound fluorescence or quenching in the first reads; inactive = flat curves in all reads;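 also: potency is read from the fitted curve at half-maximal effect; 0% = DMSO wells and 100% = buffer wells lacking importin beta; nearly all actives have a fitted effect of over 15% in size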
Target sequence (Q14974 whole entry, looked up): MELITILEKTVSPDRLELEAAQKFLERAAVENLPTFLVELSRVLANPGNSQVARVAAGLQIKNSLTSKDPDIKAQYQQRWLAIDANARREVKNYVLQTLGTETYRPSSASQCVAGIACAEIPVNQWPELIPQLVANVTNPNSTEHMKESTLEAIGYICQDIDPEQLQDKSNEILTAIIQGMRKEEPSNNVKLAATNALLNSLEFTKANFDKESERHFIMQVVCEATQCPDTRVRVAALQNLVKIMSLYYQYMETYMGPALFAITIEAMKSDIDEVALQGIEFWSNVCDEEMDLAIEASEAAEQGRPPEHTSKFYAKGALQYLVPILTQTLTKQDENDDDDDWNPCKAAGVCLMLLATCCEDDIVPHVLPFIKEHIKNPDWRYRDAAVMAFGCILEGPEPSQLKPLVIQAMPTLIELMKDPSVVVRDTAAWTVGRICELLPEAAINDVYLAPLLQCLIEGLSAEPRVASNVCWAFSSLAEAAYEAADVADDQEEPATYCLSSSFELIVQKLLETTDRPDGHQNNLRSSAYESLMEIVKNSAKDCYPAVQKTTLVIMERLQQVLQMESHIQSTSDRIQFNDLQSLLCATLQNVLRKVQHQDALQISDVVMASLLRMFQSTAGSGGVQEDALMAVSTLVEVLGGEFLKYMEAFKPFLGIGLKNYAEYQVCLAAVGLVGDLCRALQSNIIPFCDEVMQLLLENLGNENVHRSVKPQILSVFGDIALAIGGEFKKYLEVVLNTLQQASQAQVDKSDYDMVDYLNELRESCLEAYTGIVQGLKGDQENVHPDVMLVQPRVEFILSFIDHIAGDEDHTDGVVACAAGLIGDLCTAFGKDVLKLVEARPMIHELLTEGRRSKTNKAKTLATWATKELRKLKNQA
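Inhibition scored from the CFP 486 nm/YFP 530 nm FRET ratio 45 min after adding 0.125 microM importin beta to 50 nM Rango biosensor preincubated 5 min with compound (room temperature, PBS with DTT, Tween-20, BSA). No-importin wells as positive control.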
miR-21 FLuc: qHTS Assay for Modulators of miRNAs and/orActivators of miR-21 | HeLa miR-21 FLuc reporter, luciferase, 48 h | Potency, µM (series often up to 38.3 µM), for the others: at the highest dose reporter change, positive = more light | 340,000 tested, under 10 active | AID 2288, 2010; active = well fitted rising curve with a large enough effect; inconclusive = small, poorly fitted or top-dose-only effect; inactive = no such curve, though single readings can be large or run the other way;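 also: % of control where 0% means no effect; miR-21 action dims this reporter so a rising signal means less miR-21 action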
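Luminescence from a firefly luciferase reporter carrying a miR-21 binding site downstream, stably expressed under a CMV promoter in HeLa cells that make miR-21 endogenously, reports miRNA modulation after 48 h compound exposure up to approximately 40uM final.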
GLA inh pH 4.5: qHTS Assay for Inhibitors of Human alpha-Galactosidase at pH 4.5; Alpha-galactosidase A (Homo sapiens), P06280; purified enzyme, 4-MU-alpha-Gal fluorescence, pH 4.5; 230,000 tested, under 10 active; activity change, negative = inhibition, % at 105 µM; AID 1467, 2008; inconclusive = small, poorly fitted or top-dose-only inhibition, or a rising curve; inactive = flat fitted curve, though single readings scatter; no compound was filed as active;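 also: 0% = full activity with enzyme and -100% = basal without enzyme; dose as in the result columns while the protocol names 77 µM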
An asterisk follows results filed as active; ? = inconclusive; . = no result given; & = joins results of further samples; [ ] = another dose, or the depositor's remark. Some of the compounds tested. The share of hits here may be higher or lower than overall.

Start of the data: the first 20 records as a preview:
Rango release inh	Rango complex inh	miR-21 FLuc	GLA inh pH 4.5	canonical_smiles
8%	3.3%	2%	.	C/C(=N/NS(=O)(=O)c1ccc(C(C)C)cc1)c1ccncc1
0%	1.1%	18%	-7	Cc1ccccc1NS(=O)(=O)c1ccc(N2CCCC2=O)cc1
2%	0.4%	1%	0	CCOc1ccc(NC(=O)CC(NCc2ccccn2)C(=O)O)cc1 (centres undefined)
-3%	-2.3%	-4%	.	CNC(=O)CCn1nc(-c2ccc(C)cc2)c2ccccc2c1=O
35%	-0.5%	-5%	.	COc1ccc([N+](=O)[O-])cc1NC(=O)c1cccnc1
-12%	-0.6%	-44%	.	CCN1CCN(c2ccc(NC(=O)c3ccc(Br)o3)cc2)CC1
13%	-0.3%	-7%	.	Cn1cccc1C(=O)OCc1ccc(F)cc1
-15%	0.6%	.	.	O=C(COC(=O)CNC(=O)c1ccc(Cl)c([N+](=O)[O-])c1)NCC1CCCO1 (centres undefined)
0%	-3.9%	-3%	.	COCn1c(C(O)c2ccccc2)cc2ccccc21 (centres undefined)
17%	1.6%	.	.	COc1ccc(CN(C)C(=O)COC(=O)c2ccc(-c3ccccc3)cc2)c(OC)c1OC
-2%	7.2%	.	.	COc1cccc2c1C(=O)CC1C2CCC2CC(=O)CCC21C (centres undefined)
-1%	-2.5%	.	.	O=C(NCCOc1ccccc1)c1cccc(S(=O)(=O)NCc2ccccc2)c1
-6%	-0.5%	.	.	Cc1c(C(=O)c2ccc3c(c2)OCO3)ccc2c1OCO2
1%	1.0%	.	.	c1ccc(Oc2cccc(Oc3ccccc3)n2)cc1
-10%	1.7%	-15%	-8	CCNc1nc(Oc2ccc(C#N)cc2)cc(C(F)(F)F)n1
0%	1.7%	-12%	3	COCCSc1nc2c(c(=O)[nH]c(=O)n2C)n1CCC(C)C
0%	-0.7%	-3%	-1	Cc1c(-c2ccccc2)oc2c(C(=O)N3CCN(c4ccccc4F)CC3)cccc2c1=O
-3%	-6.5%	-6%	2	C/C(CCC(C)C)=N\Nc1cc(C)c2ccccc2n1
9%	-0.1%	8%	8	Cn1c(=O)c2c(ncn2CC(=O)N/N=C/c2cn[nH]c2-c2ccc(F)cc2)n(C)c1=O
8%	-1.0%	0%	5	CCn1c(COc2ccc(C)cc2)nnc1SCC(=O)C(C)(C)C

All compounds of this part, repeating the preview:
Rango release inh	Rango complex inh	miR-21 FLuc	GLA inh pH 4.5	canonical_smiles
8%	3.3%	2%	.	C/C(=N/NS(=O)(=O)c1ccc(C(C)C)cc1)c1ccncc1
0%	1.1%	18%	-7	Cc1ccccc1NS(=O)(=O)c1ccc(N2CCCC2=O)cc1
2%	0.4%	1%	0	CCOc1ccc(NC(=O)CC(NCc2ccccn2)C(=O)O)cc1 (centres undefined)
-3%	-2.3%	-4%	.	CNC(=O)CCn1nc(-c2ccc(C)cc2)c2ccccc2c1=O
35%	-0.5%	-5%	.	COc1ccc([N+](=O)[O-])cc1NC(=O)c1cccnc1
-12%	-0.6%	-44%	.	CCN1CCN(c2ccc(NC(=O)c3ccc(Br)o3)cc2)CC1
13%	-0.3%	-7%	.	Cn1cccc1C(=O)OCc1ccc(F)cc1
-15%	0.6%	.	.	O=C(COC(=O)CNC(=O)c1ccc(Cl)c([N+](=O)[O-])c1)NCC1CCCO1 (centres undefined)
0%	-3.9%	-3%	.	COCn1c(C(O)c2ccccc2)cc2ccccc21 (centres undefined)
17%	1.6%	.	.	COc1ccc(CN(C)C(=O)COC(=O)c2ccc(-c3ccccc3)cc2)c(OC)c1OC
-2%	7.2%	.	.	COc1cccc2c1C(=O)CC1C2CCC2CC(=O)CCC21C (centres undefined)
-1%	-2.5%	.	.	O=C(NCCOc1ccccc1)c1cccc(S(=O)(=O)NCc2ccccc2)c1
-6%	-0.5%	.	.	Cc1c(C(=O)c2ccc3c(c2)OCO3)ccc2c1OCO2
1%	1.0%	.	.	c1ccc(Oc2cccc(Oc3ccccc3)n2)cc1
-10%	1.7%	-15%	-8	CCNc1nc(Oc2ccc(C#N)cc2)cc(C(F)(F)F)n1
0%	1.7%	-12%	3	COCCSc1nc2c(c(=O)[nH]c(=O)n2C)n1CCC(C)C
0%	-0.7%	-3%	-1	Cc1c(-c2ccccc2)oc2c(C(=O)N3CCN(c4ccccc4F)CC3)cccc2c1=O
-3%	-6.5%	-6%	2	C/C(CCC(C)C)=N\Nc1cc(C)c2ccccc2n1
9%	-0.1%	8%	8	Cn1c(=O)c2c(ncn2CC(=O)N/N=C/c2cn[nH]c2-c2ccc(F)cc2)n(C)c1=O
8%	-1.0%	0%	5	CCn1c(COc2ccc(C)cc2)nnc1SCC(=O)C(C)(C)C
11%	0.5%	-9%	-2	COC(=O)CSc1nnc(-c2cccnc2)n1-c1cccc(OC)c1
8%	-2.0%	12%	4	COC(=O)c1ccc(OCC2c3cc(OC)c(OC)cc3CCN2C(C)=O)cc1 (centres undefined)
?	?	-5%	16	Cc1ccc(S(=O)(=O)C(C#N)c2nc3ccccc3nc2N2CCCC2)cc1C (centres undefined)
-6%	0.6%	-3%	-3	Cc1c(Cl)cccc1NC(=O)CSCc1cc(=O)[nH][nH]1
0%	-3.5%	.	.	NC(=O)c1cccc(-c2noc(-c3ccccc3F)n2)c1
0%	-4.0%	-2%	.	COc1ccc(S(=O)(=O)N2CCC(C(=O)N[C@@H](C)C(=O)NCc3ccncc3)CC2)cc1
6%	-0.7%	-18%	-3	O=C(CSc1ccccc1)Nc1cccnc1
5%	2.8%	-4%	0	CC1=C(C)CS(=O)N(c2ccc(S(N)(=O)=O)cc2)C1 (centres undefined)
?	?	-16%	1	CCN1C(C)=C(C)S/C1=C1\SC(=S)N(N)C1=O
-25%	-1.1%	-23%	4	CC(C)(C)c1ccc(COn2ccnc2)cc1
-4%	?	-2%	2	Cc1cc(C(=O)NNC(=O)Nc2cccc(C(F)(F)F)c2)no1
-2%	-2.4%	-9%	5	O=C1CNC(=O)c2c(nc3n2CCC3)N1
-19%	0.9%	-9%	-7	COc1nccnc1NS(=O)(=O)c1ccc(NC(=S)NC(=O)c2ccccc2F)cc1
14%	-0.3%	-1%	-3	O=C(Nc1cccnc1)c1ccc(Cl)cc1[N+](=O)[O-]
-3%	2.1%	5%	2	COC(=O)c1cc2sccc2n1CC(=O)N1CCCc2ccccc21
-8%	-1.0%	.	.	CC(=O)OC1CCC2C3CCC4=C(CC(F)C(=O)C4)C3CCC12C (centres undefined)
5%	18%	.	.	C#CCOCCOCCOCCNc1nc(N2CCN(C(=O)CCCCCCCCCCNC(=O)[C@H]([C@@H](C)CC)n3cc(CCCCN=C(N)N)nn3)CC2)nc(N2CCN(C(=O)CCCCCCCCCCNC(=O)[C@H](CO)n3cc(CCCSC)nn3)CC2)n1
3%	2.3%	?	-15	Cc1ccc(-n2[nH]c(=O)c(-c3ccccn3)c2C)cc1
3%	-2.4%	.	.	C[C@]12c3[nH]c4ccc(Cl)cc4c3CCN1C(=O)[C@@H](CC(=O)NCCN1CCOCC1)C[C@@H]2C(=O)N1CCOCC1
8%	?	-14%	0	C=CCn1c(SCC#N)nc2sc(CC)cc2c1=O
14%	9.4%	.	.	CCCCCCCCNCCS(=O)(=O)NCCCCCCCC
11%	-3.1%	-1%	-4	O=C(NC(c1ccccc1)c1ccccc1)C1CCCC1
11%	1.0%	1%	.	Cc1onc(-c2ccccc2Cl)c1C(=O)N1CCC(C(N)=O)CC1
5%	-0.7%	-72%	-1	Cc1csc(SCc2nnc(-c3ccc(Cl)cc3)o2)n1
-1%	-2.8%	.	.	Cc1ccc2nc(SCC(=O)Nc3ccc4[nH]c(=O)[nH]c4c3)[nH]c2c1
14%	-0.7%	-13%	-3	O=C1CCN(C(=S)NCCc2ccccc2)CC1
-4%	1.2%	23%	0	Cc1ccc(C(=O)Nc2cccc(C(F)(F)F)c2)cc1NC(=O)c1csc(-c2ccncc2)n1
4%	4.8%	0%	1	O=C(NCc1ccccc1)NCC12CC3CC(CC(C3)C1)C2
?	?	.	.	O=c1c2c3nc4ccccc4nc3n(CCN3CCOCC3)c2ncn1CCN1CCOCC1
26µM*	?	-2%	-3	Cc1c(/C=C2\SC(=O)N(CC(=O)Nc3ccc4c(c3)OCO4)C2=O)c2ccccc2n1C
0%	6.9%	6%	2	O=C(O)c1ccc2c(c1)ncn2C1CCCCCC1
-13%	0.4%	-5%	-2	COc1cc(NC(=S)Nc2ccc(N(C)C(C)=O)cc2)cc(OC)c1
-4%	0.9%	-52%	0	c1coc(-c2nnc(-c3cccs3)o2)c1
3%	4.2%	6%	-2	Cc1ccc(S(=O)(=O)NNC(=S)Nc2cccc(C)c2C)cc1
3%	2.0%	10%	.	N/C(=N\OC(=O)c1ccc([N+](=O)[O-])cc1Cl)c1ccccn1
-5%	-1.2%	.	.	CCN1CCN(c2ccc(S(=O)(=O)N3CCOCC3)cc2N)CC1
11%	0.7%	.	.	O=C1CC2(CCN1)CCN(Cc1ccccc1)CC2
53%	0.6%	-16%	-2	Cc1csc(N(C(=O)CCNC(=O)c2ccc([N+](=O)[O-])cc2)c2ccccc2)n1
-4%	-0.4%	-2%	-7	COCCn1c(N)c(Sc2ccc([N+](=O)[O-])cc2)c(=O)[nH]c1=O
-10%	0.1%	0%	4	Cc1cccc(C(=O)NNC(=O)C2CCCO2)c1 (centres undefined)

New compounds follow
Rango release inh	Rango complex inh	miR-21 FLuc	GLA inh pH 4.5	canonical_smiles
0%	0.1%	2%	2	COC(=O)c1sccc1NC(=O)c1ccc(Cl)s1
1%	1.4%	0%	3	CC(Oc1ccc2c(-c3ccccc3)cc(=O)oc2c1)C(=O)O (centres undefined)
0%	-0.6%	-10%	4	O=C(CSc1nnc(CNc2ccc(F)cc2)o1)N1CCN(C(=O)c2ccco2)CC1
4%	0.7%	-5%	4	Cc1c(C(=O)NC2CCCc3ccccc32)oc2ccc(S(=O)(=O)N3CCCC3)cc12 (centres undefined)
-11%	1.1%	.	.	Cc1ccc(C(=O)NN=C2CCCC2)cc1C
-4%	0.0%	?	-15	O=C(CSc1n[nH]c(=O)n1C1CC1)Nc1cc(Cl)ccc1Oc1ccccc1
24%	2.3%	0%&-2%	-3[21.1 µM]	Cc1cccc(OCC(=O)NC(Cc2c[nH]c3ccccc23)C(=O)O)c1C (centres undefined)
10%	-5.5%	-3%	5	CCn1c(=S)[nH]c2c(c1=O)C(C)(C)Cc1ccccc1-2
-10%	4.0%	.	.	O=C(c1cc(S(=O)(=O)NCc2ccco2)ccc1Br)N1CCOCC1
.	.	-1%	-6&-2	COC(=O)C1=C(C)N(Cc2ccco2)C(=O)N[C@H]1c1ccc(Br)cc1
20%	-6.3%	-5%	-6	Cn1nccc1NC(=O)Nc1cccc(Cl)c1
?	?	.	.	COc1ccc(OC)c(/C=N/NC(=O)C(=O)N/N=C/c2cc(OC)ccc2OC)c1
11%	3.4%	.	.	Cc1ccc(C(=O)C(C)OC(=O)CNS(=O)(=O)c2ccc(C)cc2)cc1 (centres undefined)
11%	-4.1%	-13%	0	O=C(COc1ccc(S(=O)(=O)NC2CCCCC2)cc1)NCc1cccnc1
-6%	-1.6%	-2%	-6	O=C(CC1Nc2ccccc2NC1=O)NCCCN1CCCCCC1 (centres undefined)
-9%	-0.7%	-5%	2	CN(Cc1c(F)cccc1Cl)C(=O)C1CC(=O)N(CCc2ccccc2)C1 (centres undefined)
2%	-1.9%	-6%	-2	COc1ccc(NC(=O)CN(c2cccc(C(F)(F)F)c2)S(C)(=O)=O)cc1OC
